# Screening data as filed in PubChem.
# nsP2pro primary – Primary qHTS for inhibitors of NSP2Pro chikungunya virus (CHIKV). hit rate 1.1% among 31,000. AID 1964107, 2024. Potency, µM (top dose mostly 24.9 µM), for the others: at the highest dose activity change, negative = inhibition, actives largely listed as inhibitors. FRET peptide cleavage, nsP2pro, fluorescence 1 h; active means well fitted inhibition curve with a large enough effect; inconclusive means small, poorly fitted or top-dose-only effect; inactive means no such curve, though single readings can be large or run the other way; further: nearly all actives have a fitted effect of over 60% in size; a reference inhibitor and vehicle were the controls
# * = called active by the depositor; i = inactive; ? = inconclusive; [ ] = remark or other dose. On the % scale 0 is the no-effect control and ±100 the full control effect; potency means the concentration at half of the fitted maximal effect. Only part of the results is shown; rates above refer to the full screens.
SMILES,nsP2pro primary
Cc1ccc(CN(C)c2ncnc3ccc(-c4ccc5c(c4)OCO5)cc23)o1,-6%
Cc1ccc(C2CCN(C(=O)Nc3ccc(C)c(C)c3)C2)cc1 (configuration not stated),-9%
COC(=O)c1c(NC(=O)c2ccccc2)c2cc(NC3CCOCC3)cnc2n1CC1CCCO1 (configuration not stated),-8%
Clc1ccccc1CSc1nc2ncc(Br)cc2[nH]1,-5%
COc1ccc(CCNC(=O)C(C)C2CCOCC2)cc1OC (configuration not stated),-1%
CCn1c(CN(C)C)nnc1C1CCN(C(=O)Cn2nc(C)cc2N)CC1,1%
CCCCNc1nc(Oc2ccc(=O)n(C)n2)nc(N2CCOCC2)n1,-16%
Cc1ccc(CNC(=O)C2CCCN(c3cnn(Cc4ccccc4)c(=O)c3)C2)o1 (configuration not stated),-26%
CCOc1ccc(C(=O)Nc2ccc3nc(Nc4cccc(C(F)(F)F)c4)cc(C)c3c2)cc1OCC,-18%
CC[C@@H]1C[C@H]2CC[C@H](O2)[C@H](C)C(=O)O[C@@H](C)C[C@@H]2CC[C@@H](O2)[C@@H](C)C(=O)O[C@H](C)C[C@H]2CC[C@H](O2)[C@H](C)C(=O)O[C@@H](C)C[C@@H]2CC[C@@H](O2)[C@@H](C)C(=O)O1,?
COc1ccc(C2NC(=O)c3ccccc3N2)cc1COc1ccc(NC(C)=O)cc1 (configuration not stated),-22%
CC(C)(C)c1nc(C(=O)NCc2cccnc2)n2ccccc12,-21%
CCC(=O)N1CCCC1c1nc(CCOCC2CCCC2)no1 (configuration not stated),-16%
C[C@@H]1CN(C2CCC(C#N)(c3ccc(F)cc3)CC2)CC[C@]1(C(=O)O)c1ccccc1 (some centres not stated),-1%
COc1cc(/C=C/C(=O)O[C@H]2CC[C@]34C[C@]35CC[C@]3(C)[C@@H]([C@H](C)CCC=C(C)C)CC[C@@]3(C)[C@@H]5CC[C@H]4C2(C)C)ccc1O,16%
CC[C@H]1OC(=O)[C@H](C)C(=O)[C@H](C)[C@@H](OC2O[C@H](C)C[C@H](N(C)C)[C@H]2O)[C@@H](C)C[C@@H](C)C(=O)/C=C/[C@]1(C)O (some centres not stated),4%[10 µM]
COc1ccc(-c2nc3ccc(NS(C)(=O)=O)cc3o2)cc1,-11%
O=S1(=O)N=C(OCc2ccccc2)c2ccccc21,0%
Cc1ccc(-n2ncc3c(N4CCN(Cc5ccccc5)CC4)ncnc32)cc1C,-4%
CCCCN(CC)CCCNC(=O)c1sc2nc(C)cc(C)c2c1-n1cccc1,?
CCOCCCNC(=O)CCc1nc(C2CCCN2C(=O)c2ccccc2)no1 (configuration not stated),-12%
CC(C)n1nc(C#Cc2ccccc2)c2c(N)ncnc21,4.4µM*
COc1cc(O[C@@H]2O[C@H](CO[C@H]3OC[C@](O)(CO)[C@H]3O)[C@@H](O)[C@H](O)[C@H]2O)cc(OC)c1O,-21%[10 µM]
O=C(O)CC1(CC(=O)N[C@@H]2C=C(C(=O)N[C@H]3CCCNC3=O)C[C@@H](O)[C@@H]2O)CCCC1,-7%
COc1cccc(NS(=O)(=O)c2ccc(C)cc2)c1C(=O)Nc1nc(-c2ccccc2)cs1,?

# Later entries.
SMILES,nsP2pro primary
Cc1ccnc(NS(=O)(=O)c2ccc(N)cc2)n1,2%
O=C(OCC#CCSc1nnc(-c2cccc3ccccc23)o1)c1ccc(Br)cc1,i
CCOc1ccc(CNC(=O)c2cccc(Nc3nc4ccccc4n4nnnc34)c2)cc1OC,-3%
O=C(OCc1ccccc1)N1CCN(C(=O)[C@H](Cc2ccc(O[S+](=O)([O-])c3cccc4cnccc34)cc2)N[S+](=O)([O-])c2cccc3cnccc23)CC1,i
CC(=O)c1ccc(N2CCN(S(=O)(=O)c3ccc4c(c3)OCC(=O)N4)CC2)cc1,-6%
O=C(CC1Sc2ccc(C(F)(F)F)cc2NC1=O)Nc1ccc(Cl)c(C(F)(F)F)c1 (configuration not stated),?
CC(=O)c1ccc(N2CCN(c3ccc(NC(=O)c4ccc(F)cc4)cc3C(=O)O)CC2)cc1,36%[activator]
CCOC(=O)c1ccccc1NC(=O)N1CCN2CCCCC2C1 (configuration not stated),-24%
Nc1c2c(nc3ccccc13)CCCC2,5%
O=C(c1cccnc1)N1CCN(c2cc(-c3ccccc3)[nH]n2)CC1,0%
CS(=O)(=O)c1ccc(C(=O)OCC#CCSc2nnc(-c3cccc4ccccc34)o2)cc1,-16%
C=C(C)Cn1c(SCC(=O)c2ccccc2)nc2sc3c(c2c1=O)CCCC3,-24%
COc1ccccc1N1CCN(C(c2ccccc2)c2nnc(-c3ccccc3Cl)o2)CC1 (configuration not stated),-10%
COc1ccccc1CNC(=O)Nc1nnc(-c2ccncc2)s1,i
CCOC(=O)c1ccc(N(C)c2csc(-c3ccccc3)n2)cc1,-2%
COC(=O)c1cccc(-n2c(CCC(=O)O)ccc2-c2cccs2)c1,8.9µM*
CC(C)C(=O)OC[C@H]1O[C@@H](n2ccc(N)nc2=O)[C@](C)(F)[C@@H]1OC(=O)C(C)C,6%
COc1cccc(NC(=O)CCNS(=O)(=O)c2ccc(Br)s2)c1,-13%
C[C@]1(CO)CCC[C@]2(C)C3=C(CCC12)COC3 (some centres not stated),?
CCOC(=O)C(C)NC(=O)c1cc2c(=O)[nH]c3ccc(C)cc3c2s1 (configuration not stated),-4%
Cc1cccc([S+](=O)([O-])N2CCC3(CC2)OCCN(CC2CC2)C3=O)c1,-6%[39.2 µM]
COc1ccc(OC)c(-c2nc3cc4c(cc3cc2CN2CCCOCC2)OCO4)c1,-11%
Cc1cc(N[S+](=O)([O-])c2cc3c(cc2F)NC(=O)CC3)ccc1Br,-6%
CCC1NC(=O)C2C(Cl)C(Cl)CN2C(=O)C(C(C)O)NC(=O)CC(c2ccccc2)NC(=O)C(CO)NC1=O (configuration not stated),9%[10 µM]
O=C(CNC(=O)c1ccccc1)OC(C(=O)Nc1ccc2c(c1)OCO2)c1ccccc1 (configuration not stated),4%

# Continuation.
SMILES,nsP2pro primary
C#CCN(C)Cc1nc(C2(O)CCN(C(=O)c3ccccc3F)CC2)cs1,i
CC(C)(O)C1CC=C(C(=O)OC[C@H]2O[C@@H](OC(=O)C3=CCC(C(C)(C)O)CC3)[C@H](O)[C@@H](O)[C@@H]2O)CC1 (some centres not stated),23%[10 µM]
C=C1[C@@H](C)C2[C@H](Cc3ccccc3)NC(=O)[C@@]23C(/C=C/C[C@H](C)C[C@@](C)(O)/C=C/[C@@H]3OC(C)=O)[C@@H]1O (some centres not stated),-3%
O=C(O)CCn1ncc2cc(OCC3CCN(c4ncc(F)cn4)CC3)ccc21,0%[39.2 µM]
N#Cc1ccc(-c2ccc(NC(=O)c3cccs3)cn2)cc1,5%
CNCc1ccc(C)c(NC(=O)c2ccc(Nc3nc(-c4ccccc4)c4ccccc4n3)cc2)c1,82%[activator]
CC(C)(C)c1coc([C@@H]2COCCN2Cc2ccc(C(=O)O)cc2)n1,-7%[39.2 µM]
C[C@H]1NCc2cc(-c3ccc4c(=O)c(C(=O)O)cn(C5CC5)c4c3OC(F)F)ccc21,4%[10 µM]
CC/C(C)=C/C(=O)OC1C(OC2(C)CCC3C(C4C(C)CCC42)C3(C)C)OC(C)C(O)C1O (configuration not stated),?
CN(C)C(=O)COC(=O)c1cc(-c2ccc(C3CCNCC3)cc2)c2ccc(-c3ccc(C(F)(F)F)cc3)cc2c1,145%[activator]
O=C(c1ccc(C(F)(F)F)cc1)N1CCC2(CC1)COc1ccccc1NC2=O,1%
CCOCC(=O)N1CCC(Nc2cccn3ncnc23)CC1,?
CC(=O)NC1CCN(C(=O)Cc2c(C)[nH]c3c(C)ccc(C)c23)C1 (configuration not stated),-23%
Cc1cc(C)cc(OCC(=O)NCC2(N3CCOCC3)CCCCC2)c1,-23%
Cc1cccc(CCNC(=O)c2cc3c(s2)-c2c(C)cccc2OC3)c1,-15%
O=C1c2ccccc2C(=O)N1c1cccc2ncccc12,0%
CC(C)NCC(O)COc1ccc(CCOCC2CC2)cc1 (configuration not stated),-4%
COCCN(C)C[C@H]1C[C@H](CO)CN(C(=O)c2cc3ccccc3s2)C1,i
COc1ccc(Cl)cc1NC(=O)Cn1c(=O)oc2cc(S(=O)(=O)N3CCCCCC3)ccc21,-10%
O=c1c2ccccc2nc2sc(Nc3ccc(Br)cc3)nn12,-1%
CC1CN(c2cc3c(cc2F)c(=O)c(C(=O)O)cn3-c2ccc(F)cc2F)CCN1 (configuration not stated),3%
O=C(Nc1ccc(Br)cc1)Nc1nc2c(s1)CCCCCC2,8%
C[C@@H](c1ccccc1)N(C(N)=NC#N)c1cccc2ncccc12,9%
N[C@H]1CN(C(=O)c2cccc(-n3cnnc3)c2)C[C@@H]1c1ccccc1,i
Cc1nc(CN(C)C(=O)c2coc(COc3ccc(F)cc3Cl)n2)cs1,3%

# A few values from the entries so far:
# O=C(Nc1ccc(Br)cc1)Nc1nc2c(s1)CCCCCC2 in nsP2pro primary is entered as 8%
# CC(C)NCC(O)COc1ccc(CCOCC2CC2)cc1 (configuration not stated) in nsP2pro primary is entered as -4%

# Next part.
SMILES,nsP2pro primary
CN(C)C(=O)N(C)Cc1ccc(F)cc1,-20%[39.2 µM]
O=c1c2ccccc2nc2n1CCc1c-2[nH]c2ccccc12,22%
CNc1cc(C2CC(NS(=O)(=O)c3ccc(Cl)s3)C2)nc(N)n1 (configuration not stated),-10%
CNC(=O)C1(N2CCC[C@H]2C(=O)N(C)Cc2cccnc2)CCOCC1,-1%[39.2 µM]
Cc1ccc(C(=O)N2CCC(N3CCOCC3=O)CC2)cc1,-7%
COc1cccc(CN2CCc3nc(Nc4ccc5c(c4)OCCO5)ncc3C2)c1OC,0%
Cc1cc(C)cc(N(CC(=O)Nc2c(C)cc(C)cc2C)S(=O)(=O)c2c(C)nn(C)c2C)c1,-10%
O=C1O[C@H](C(O)CO)C(=O)C1=O (some centres not stated),2%
COc1cccc2c1C(=O)c1c(O)c3c(c(O)c1C2=O)C[C@@](O)(C(C)=O)C[C@@H]3O[C@H]1C[C@H](N)[C@H](O)[C@H](C)O1,310%[activator]
Cc1ccnn1CC(=O)N(Cc1ccncc1)Cc1cccc(OCCc2ccc(F)cc2)c1,i
C=C(C)C(O)COc1ccc(CC(=O)O)cc1 (configuration not stated),-2%
Cc1noc2c(N3CCOCC3)cc(-c3cccs3)nc12,-1%[39.2 µM]
CCN1CCN(c2ccc(Cl)nn2)C(=O)C1,2%[39.2 µM]
Cc1ccnc(N(C)C(=S)N2CCN(c3cccc(C(F)(F)F)c3)CC2)c1,-3%
O=C(Cn1cncn1)N1CCc2onc(C(c3ccccc3)c3ccccc3)c2C1,i
COc1ccc(-c2ccc3ncc4c(c3c2)n(-c2ccc(N3CCNCC3)c(C(F)(F)F)c2)c(=O)n4C)cn1,30%[10 µM]
Cc1ccc(C)c(Nc2nn3c(=O)c4ccc(C(=O)NCCc5ccccc5)cc4nc3s2)c1,?
NC(=O)c1ccc[n+](C2OC(COP(=O)([O-])OP(=O)(O)OCC3OC(n4cnc5c(N)ncnc54)C(O)C3O)C(O)C2O)c1 (configuration not stated),-13%
N#Cc1ccccc1S(=O)(=O)N1C[C@@H]2C[C@H](C1)c1ccc(-c3ccc(Cl)cc3)c(=O)n1C2,4%
CC(N)Cc1c[nH]c2ccccc12 (configuration not stated),-12%
CCC(=O)Nc1ccc(Cl)cc1C(=O)c1ccc[nH]1,-1%
Cc1ccc(CNC(=O)CCn2cnc3ccccc3c2=O)cc1,-15%
COc1cccc(-c2nn3c(=O)cc(CN4CCN(S(=O)(=O)c5ccc(C)cc5)CC4)nc3s2)c1,-1%
C[C@@H](Cc1cc2c(c(C(N)=O)c1)N(CCCO)CC2)NCCOc1ccccc1OCC(F)(F)F,13%
COC(=O)C(C)n1nnc2sc(-c3ccccc3)cc2c1=O (configuration not stated),-16%

# Of the compounds above, six contain bromine.
SMILES,nsP2pro primary
Clc1ccccc1CSc1nc2ncc(Br)cc2[nH]1,-5%
O=C(OCC#CCSc1nnc(-c2cccc3ccccc23)o1)c1ccc(Br)cc1,i
COc1cccc(NC(=O)CCNS(=O)(=O)c2ccc(Br)s2)c1,-13%
Cc1cc(N[S+](=O)([O-])c2cc3c(cc2F)NC(=O)CC3)ccc1Br,-6%
O=c1c2ccccc2nc2sc(Nc3ccc(Br)cc3)nn12,-1%
O=C(Nc1ccc(Br)cc1)Nc1nc2c(s1)CCCCCC2,8%

# Of the compounds above, these have an aryl thioether with sulfur outside any ring.
SMILES,nsP2pro primary
Clc1ccccc1CSc1nc2ncc(Br)cc2[nH]1,-5%
O=C(OCC#CCSc1nnc(-c2cccc3ccccc23)o1)c1ccc(Br)cc1,i
CS(=O)(=O)c1ccc(C(=O)OCC#CCSc2nnc(-c3cccc4ccccc34)o2)cc1,-16%
C=C(C)Cn1c(SCC(=O)c2ccccc2)nc2sc3c(c2c1=O)CCCC3,-24%

# Going on with the list.
SMILES,nsP2pro primary
CCOC(=O)C1CCN(c2ncnc3c2c(-c2ccccc2)cn3-c2ccc(Cl)cc2)CC1,-21%
Cc1ccc([S+](=O)([O-])NC2CCN(Cc3ccc(-c4ccsc4)cc3)C2)cc1 (configuration not stated),i
COc1cccc2cc(C(=O)N3CCN(c4cc(C)ccc4C)CC3)c(=O)oc12,-12%
Cc1nccn1CCC1CCN(c2nccc(-c3ccccn3)n2)CC1,i
COc1ccc(Br)cc1CN1C(=O)c2ccccc2C1C(=O)NC1CCCCCC1 (configuration not stated),-16%
CCCCOC(=O)c1ccc(Nc2ncnc3[nH]ncc23)cc1,-14%
Cc1ccc(N(CC(=O)NCc2ccc(F)cc2)S(=O)(=O)c2c(C)nn(C)c2C)cc1,-12%
COc1ccc(C(=O)N(c2ccc(C)cc2)S(=O)(=O)c2ccc(C)cc2)cc1,-11%
CCOc1ccc(C(=O)Nc2ccc(-c3nc4ccccc4[nH]3)cc2)cc1[N+](=O)[O-],4%
CS(=O)(=O)N1CCC(NC(=O)c2[nH]ncc2NC(=O)c2c(Cl)cccc2Cl)CC1,6%
